# PrP UTR inh – inhibition of PrP 5' UTR reporter expression; cell-based PrP 5' UTR mRNA reporter, plate reader; inhibition, % (test concentration not listed); 340,000 tested, 0.35% active; AID 488862, 2010;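 active = every replicate at 50% or more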;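 also: 0 = median of the neutral control wells; tested in H4 reporter cells; numbers are from one replicate; inactives centre near -14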
# Bead autofluor – compound fluorescence in toxin protease inhibitor counterscreen; compound autofluorescence counterscreen, microsphere flow cytometry; stronger effect = higher value; fluorescence intensity (concentration not given with the values); 360,000 tested, 3.1% active; AID 624483;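 active = at least 3 SD above the mean of all compounds, about 16000 in these data; inconclusive = too few beads counted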;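 also: 100 nL of 1 mM stock went into each well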
# RN4220 kill – growth inhibition of S. aureus RN4220, primary screen, OD600; 330,000 tested, 0.33% active; inhibition, % (concentration not given with the values); 16 h;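 active = z-score of -3 or lower and OD600 up to 0.18 on both plates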;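 also: plate controls were untreated cells for no effect and reference antibiotic for full effect; stock transfer was 100 nL into about 80 µL; one replicate is shown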
# Mtb hypoxia inh – PubChem AID 1159583 | fluorescence inhibition, % (no concentration beside the values) | 300,000 tested, 0.1% active | M. tuberculosis hypoxia-regulated fluorescent reporter, fluorescence;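 active = 35 to 45% if threefold the growth effect, above 45% if 1.5-fold the growth effect; inactive = the rest, general growth blockers included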;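 also: wells of about 50 µL received 100 nL stock; 0% = vehicle wells and 100% = reference inhibitor wells; whole bacteria with a GFP reporter of the hypoxia response; strong numbers were not always called active; many hits fall short of the cut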
# Sa ugtP lethal – growth inhibition of ugtP-null S. aureus, primary screen, RN4220 ugtP deletion, OD600; growth inhibition, % (no concentration beside the values); 330,000 tested, 0.54% active; AID 1259309, 2017; 16 h; some inactives read as strong as hits;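 active = z-score under -3 and OD600 up to 0.15 on both plates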;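 also: plate controls were untreated wells for no effect and antibiotic for full effect; wells of about 80 µL received 100 nL stock; the first replicate is given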
# BJeLR viability – MLPCN primary cell-based screen for lethality selective to Ras in HRASV12 cells. inhibition, % (concentration not given with the values). 300,000 tested, 0.17% active. BJeLR (HRASV12) viability, CellTiter-Glo ATP luminescence, 48 h; reference of the scale not given here. AID 1554, 2009;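 active = replicate mean above 50%; inconclusive = above 50% but judged a plate artefact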;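 also: 50 nL library stock added to about 25 µL; numbers are from one replicate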
# Mtb hypoxia inh growth – also measured in Mtb hypoxia inh; calls as there; growth inhibition, %; measured here: M. tuberculosis growth (absorbance);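 0% = vehicle and 100% = reference antibiotic; read after six days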
# The depositor's hits bear a star; ? = inconclusive; nt = not tested or not shown.
SMILES,PrP UTR inh,Bead autofluor,RN4220 kill,Mtb hypoxia inh,Mtb hypoxia inh growth,Sa ugtP lethal,BJeLR viability
O=C1c2ccccc2C(Nc2ccc3nc(-c4cccnc4)[nH]c3c2)N1Cc1ccco1 (stereo not drawn),-4,5286,-13,-6,18,-5,-11
O=C(O)CCn1nnc2ccccc21,-17,4191,5.6,4,1,3,0
Cc1cc(=O)[nH]n(CCO)c1=O,-11,6162,3.3,8,8,4,-5
COc1cccc(NC(=O)CSc2ccc(-c3sc(C)nc3C)nn2)c1,-16,5650,2.8,8,11,4,-6
CC(=O)Nc1cccc(NC(=O)Nc2cccc(Cl)c2C)c1,-10,2006,-2.0,5,14,7,4
COc1cccc(C(=O)NCCSc2ccc(Br)cc2)c1,-29,3986,-0.3,4,4,0,-2
CCOC(=O)N1CCc2c(sc3nc[nH]c(=O)c23)C1,10,4344,2.5,-2,2,5,3
O=C1CCCCC1(O)Cc1ccc2c(c1)OCO2 (stereo not drawn),-21,4075,2.3,15,17,2,nt
CCOC(=O)C1CCC2(CC1)C(C#N)=C(N)Oc1n[nH]c(C)c12 (stereo not drawn),-57,20477*,5.8,3,7,2,-10
CC(=NNC(=O)c1ccc2ccccc2c1)c1cccnc1,nt,nt,3.1,6,0,8,nt
C/C(=N\NC(=S)NCc1ccccc1)c1ccccc1,-15,2422,nt,nt,nt,nt,5
COc1ccc(S(=O)(=O)N(C)c2ccc(C(=O)NC3CC3)cc2)cc1,-24,4931,3.6,6,2,7,5
C/C(C=NNC(=O)c1cc(-c2cccn2C)n[nH]1)=C\c1ccccc1,nt,nt,21,13,32,37,nt
C=Cn1ccnc1P(=S)(c1c(C)nn(-c2ccccc2)c1C)c1nccn1C=C,-7,8749,3.1,-12,-1,-5,-10
COc1cc(OC)cc(C(=O)NC(C)CCc2ccccc2)c1 (stereo not drawn),-4,2916,3.7,3,10,3,4
CCOc1ccc(CN2CCN(Cc3cccc4nonc34)CC2CCO)cc1 (stereo not drawn),-29,2594,4.8,13,0,3,-6
CC1=C(C(=O)OCC(Cl)(Cl)Cl)N2C(=O)C(NC(=O)Cc3ccccc3)C2SC1 (stereo not drawn),-15,3236,4.0,4,5,14,4
O=C(Cc1cccs1)NCc1ccco1,-19,3874,4.2,20,11,-1,-8
CC1(C)SC(=S)N(N=Cc2ccc(O)cc2)C1N(O)C(=O)Nc1ccc([N+](=O)[O-])cc1 (stereo not drawn),nt,nt,10,-7,-1,-14,nt
Cc1cc(C)c(C)c(S(=O)(=O)N2CCN(c3ccc(O)cc3)CC2)c1C,3,4206,43,7,0,0,17
O=C(Nc1ccc(F)cc1)c1oc2ccccc2c1NC(=O)C1CC1,-5,5274,1.8,-9,-6,4,-21
COc1ccc(CN(C)C(=O)COC(=O)c2c(-c3ccccc3Cl)noc2C)cc1,-39,3462,0.7,4,0,3,1
CN(CC(=O)O)S(=O)(=O)c1ccc2oc3ccccc3c2c1,-16,4227,3.1,-7,-5,-3,6
CC(C)(C)NC(=O)CCN(N=Cc1ccccc1F)C1=NS(=O)(=O)c2ccccc21,nt,nt,3.6,3,-7,1,nt
Cc1nnc(NC(=O)CSc2nc3ccccc3o2)s1,-3,5677,0.5,-6,0,4,2
CCc1ccc(NC(=O)C(C)Sc2nc(-c3ccco3)c(C#N)c(=O)[nH]2)cc1 (stereo not drawn),-2,3702,-1.9,-3,-1,-18,-4
CSc1nnc(NC(=O)c2cccc(S(=O)(=O)N3CCOCC3)c2)s1,-57,6774,3.8,1,14,2,-7
CC(=NNc1ccc(S(N)(=O)=O)cc1[N+](=O)[O-])c1ccccc1O,nt,nt,3.1,-1,-10,-9,nt
Cc1cc(=O)[nH]c(N2CCCC2)n1,2,3194,4.2,3,6,-1,-3
Cc1ccc(Oc2ccc(Cl)cc2NC(=O)c2ccc(F)cc2F)cc1,-15,2017,6.3,-1,-4,13,4
O=C1CCC(=O)N1c1ccc(S(=O)(=O)Nc2cccc([N+](=O)[O-])c2)cc1,-3,6441,0.5,-5,-1,-2,-2
O=C(NCc1ccccn1)C(=O)NN=Cc1ccc2c(c1)OCO2,nt,nt,9.1,6,3,18,nt
COc1cccc(NC(=O)C(OC(=O)c2ccc([N+](=O)[O-])o2)c2ccccc2)c1 (stereo not drawn),14,2364,10.0,3,5,11,-10
COc1ccc(NC(=O)Nc2ncccc2C)cc1,-82,6889,3.7,17,4,1,4
COc1cc(/C=C2\C(=O)N(c3ccccc3)N=C2C)ccc1Oc1ccc([N+](=O)[O-])cc1[N+](=O)[O-],-12,2029,8.1,5,7,-3,nt
CCN(CC)C1=NC(=[N+](CC)CC)c2ccccc21,-15,17474*,2.1,11,6,3,4
COc1ccc(C(NC(=O)CN2C(=O)NC3(CCc4ccccc43)C2=O)c2ccc(OC)cc2)cc1 (stereo not drawn),-8,?,-3.5,-3,-6,6,nt
CC1CCCC(C)N1N=Cc1ccc(N(C)C)cc1 (stereo not drawn),nt,nt,0.6,13,11,7,nt
O=C(O)C1C2c3ccccc3C(O)C1(C(=O)O)c1ccccc12 (stereo not drawn),-10,3484,0.8,7,6,2,nt
COc1ccc(N2CCN(C(=O)CN3CCN(c4nc(-c5ccc(F)cc5)cs4)CC3)CC2)cc1,-59,4419,-1.2,1,11,-3,2

# 4 entries from above, as labelled records.
Cc1ccc(Oc2ccc(Cl)cc2NC(=O)c2ccc(F)cc2F)cc1
  PrP UTR inh: -15
  Bead autofluor: 2017
  RN4220 kill: 6.3
  Mtb hypoxia inh: -1
  Mtb hypoxia inh growth: -4
  Sa ugtP lethal: 13
  BJeLR viability: 4

COc1ccc(CN(C)C(=O)COC(=O)c2c(-c3ccccc3Cl)noc2C)cc1
  PrP UTR inh: -39
  Bead autofluor: 3462
  RN4220 kill: 0.7
  Mtb hypoxia inh: 4
  Mtb hypoxia inh growth: 0
  Sa ugtP lethal: 3
  BJeLR viability: 1

CN(CC(=O)O)S(=O)(=O)c1ccc2oc3ccccc3c2c1
  PrP UTR inh: -16
  Bead autofluor: 4227
  RN4220 kill: 3.1
  Mtb hypoxia inh: -7
  Mtb hypoxia inh growth: -5
  Sa ugtP lethal: -3
  BJeLR viability: 6

COc1cc(/C=C2\C(=O)N(c3ccccc3)N=C2C)ccc1Oc1ccc([N+](=O)[O-])cc1[N+](=O)[O-]
  PrP UTR inh: -12
  Bead autofluor: 2029
  RN4220 kill: 8.1
  Mtb hypoxia inh: 5
  Mtb hypoxia inh growth: 7
  Sa ugtP lethal: -3
  BJeLR viability: nt

# Looked up by structure from the list above (two):
SMILES,PrP UTR inh,Bead autofluor,RN4220 kill,Mtb hypoxia inh,Mtb hypoxia inh growth,Sa ugtP lethal,BJeLR viability
CC1CCCC(C)N1N=Cc1ccc(N(C)C)cc1 (stereo not drawn),nt,nt,0.6,13,11,7,nt
O=C(O)C1C2c3ccccc3C(O)C1(C(=O)O)c1ccccc12 (stereo not drawn),-10,3484,0.8,7,6,2,nt

# Carrying on:
SMILES,PrP UTR inh,Bead autofluor,RN4220 kill,Mtb hypoxia inh,Mtb hypoxia inh growth,Sa ugtP lethal,BJeLR viability
CCN1CCN(C(c2cccs2)C(C)NS(=O)(=O)c2ccc(F)cc2)CC1 (stereo not drawn),-7,4666,-14,1,7,-5,6
COc1cccc(NC(=O)CCNS(=O)(=O)c2ccc3c(c2)CC(C)N3C(=O)C2CC2)c1 (stereo not drawn),-14,5498,3.0,-6,1,2,-29
COc1ccccc1C(c1nnnn1C(C)(C)C)N1CCN(Cc2ccncc2)CC1 (stereo not drawn),-12,2776,-2.9,nt,nt,6,11
COc1ccccc1-n1nc(C)c(-c2ccccc2)c1N,-21,4664,-0.2,7,3,1,-13
N#CCC(=N)N1CCN(c2cccc(Cl)c2)CC1,-2,3226,-2.2,nt,nt,-2,4
CC(C)(C)NC(=O)COC(=O)c1cc(F)c(F)cc1Cl,-15,4881,-1.1,nt,nt,4,1
O=C(CCCN1C(=O)C2CC=CCC2C1=O)Nc1ccccc1F (stereo not drawn),-27,6123,-0.2,1,1,12,7
C=C1CCN(C(Cc2ccccc2)C(=O)NCc2ccc(Cl)cc2)S(=O)(=O)c2ccccc21 (stereo not drawn),nt,nt,-2.1,1,10,-23,nt
O=C(COc1ccc2oc(-c3ccco3)cc(=O)c2c1)N1CCCCC1,-18,4014,17,9,12,15,6
O=C1CCC(=O)N(O)CCCCCNC(=O)CCC(=O)N(O)CCCCNC(=O)CCC(=O)N(O)CCCCCN1,-1,5704,4.2,nt,nt,9,-9
O=c1[nH]cnc2c1c(-c1ccccc1)cn2-c1ccc(F)cc1,13,6802,6.4,8,12,-2,-24
COc1ccc(C(=O)NCCNC(=O)c2ccc(OC)cc2)cc1,-30,4294,0.6,16,4,2,3
Brc1cccc(/C=N\n2cnnc2)c1,-31,10325,nt,nt,nt,nt,-6
O=C(Nc1ccc(Cc2ccc(NC(=O)C3CC3)c(O)c2)cc1O)C1CC1,-3,3626,-1.0,4,6,8,-1
Cc1nc(C(=O)NNC(=O)c2c(-c3c(Cl)cccc3Cl)noc2C)cs1,-23,4552,4.8,6,-2,-7,7
CCC(C(=O)N1CCOCC1)n1nc(C)n2c(cc3cc(C)ccc32)c1=O (stereo not drawn),-11,4656,3.2,0,-3,7,7
O=C(COc1cc(F)ccc1[N+](=O)[O-])Nc1cccc(Br)c1,-63,2748,3.3,21,-2,2,-1
N#Cc1ccccc1/C=N/Nc1nc(-c2ccccc2)c2cc(Br)ccc2n1,-7,3871,nt,nt,nt,nt,0
Clc1ccc(OCc2cc(-c3ccccc3)no2)c(Cl)c1,-21,5516,12,10,3,10,17
Cc1ccc(S(=O)(=O)N2CCC(NC(=O)c3ccccc3)CC2)cc1,-43,3394,2.1,-2,-4,3,6
COc1ccnc(CSC(N)=Nc2ccc(F)cc2)c1,-15,3962,0.4,nt,nt,3,3
CC(=O)c1cccc(NC(=O)c2cc(-c3ccc(F)cc3)on2)c1,-3,19126*,2.8,4,1,0,1
Cc1cc(C)cc(N(CC(=O)NC(C)C)C(=O)CCC(=O)Nc2ccccn2)c1,-5,3347,5.9,16,5,9,8
O=C(N/C(=C/c1cccs1)C(=O)N1CCOCC1)c1ccccc1,-26,3941,2.5,0,-1,-2,-11
CCc1nc2ccccc2c(=O)n1N=Cc1ccc(Cl)cc1,nt,nt,-0.5,4,2,-8,nt
CC(=O)N/N=C(\N)c1nonc1N,nt,3790,4.7,-2,-3,7,-14
CCCN(C(=O)C(C)Oc1cccc(Cl)c1)c1c(N)n(Cc2ccccc2)c(=O)[nH]c1=O (stereo not drawn),-15,4457,nt,nt,nt,nt,7
S=c1[nH]nc(-c2ccco2)n1/N=C/c1ccc(Cl)cc1,-10,2108,nt,nt,nt,nt,-4

# Source: PubChem

# The order is random; 3.9% or so of the library scored in one or more.
